Mtb H37Rv – M. tuberculosis H37Rv growth inhibitors, H37Rv strain (AID 1626). M. tuberculosis H37Rv growth inhibition; higher % means a stronger effect. inhibition, % at 10 µM; hits with a dose series show IC50 in µM. actives 0.95% (n = 220,000);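 active means confirmed in a dose series; inconclusive means inhibition above 80% but not taken into the dose series; inactive means below 80% or under 30% at every dose of the series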;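 further: bacteria incubated seven days before Alamar blue readout; 0% = bacteria only wells and 100% = bacteria with antibiotic wells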
YopH PTP inh – YopH tyrosine phosphatase inhibitors, primary screen, biochemical, fluorescence Ex485/Em525; actives 0.16% (n = 140,000); inhibition, %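 (about 10 µM by stock and volumes)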; AID 898, 2007; YopH tyrosine phosphatase [Yersinia enterocolitica];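 active means inhibition of 50% or more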;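 further: controls were vehicle for no effect and minimum signal wells for full effect; inactives centre near -20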
Mtb bLac sens – beta-lactam sensitization of Mtb H37Rv, H37Rv; M. tuberculosis H37Rv growth with meropenem, percent inhibition; hits of this screen are not shown here; inhibition, % at 25 µM; actives 0.27% (n = 330,000);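 active means about 74% or more and at least 40 points above the plate without the antibiotic, then above 30% in a dose series; inconclusive means first-round hits that could not be retested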;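 further: growth measured after seven days incubation then overnight dye step; 0% = bacteria only wells and 100% = bacteria with antibiotic; twin plates without the antibiotic show which effects depend on it; some results filed as inactive read as strong as hits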
RecA intein inh – Mtb RecA intein splicing inhibitors, primary screen, biochemical, fluorescence, HTS; actives 0.75% (n = 290,000); AID 2221, 2009; cell-free RecA intein splicing; inhibition, %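 (about 9 µM by stock and volumes)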; Protein RecA (Mycobacterium tuberculosis (strain ATCC 25618 / H37Rv)), P9WHJ3; in the data active means inhibition above about 30%; inconclusive means no clear call, values can overlap the other calls;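 further: 0% = vehicle wells and 100% = reference inhibitor control wells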
Target sequence (P9WHJ3 whole entry, looked up): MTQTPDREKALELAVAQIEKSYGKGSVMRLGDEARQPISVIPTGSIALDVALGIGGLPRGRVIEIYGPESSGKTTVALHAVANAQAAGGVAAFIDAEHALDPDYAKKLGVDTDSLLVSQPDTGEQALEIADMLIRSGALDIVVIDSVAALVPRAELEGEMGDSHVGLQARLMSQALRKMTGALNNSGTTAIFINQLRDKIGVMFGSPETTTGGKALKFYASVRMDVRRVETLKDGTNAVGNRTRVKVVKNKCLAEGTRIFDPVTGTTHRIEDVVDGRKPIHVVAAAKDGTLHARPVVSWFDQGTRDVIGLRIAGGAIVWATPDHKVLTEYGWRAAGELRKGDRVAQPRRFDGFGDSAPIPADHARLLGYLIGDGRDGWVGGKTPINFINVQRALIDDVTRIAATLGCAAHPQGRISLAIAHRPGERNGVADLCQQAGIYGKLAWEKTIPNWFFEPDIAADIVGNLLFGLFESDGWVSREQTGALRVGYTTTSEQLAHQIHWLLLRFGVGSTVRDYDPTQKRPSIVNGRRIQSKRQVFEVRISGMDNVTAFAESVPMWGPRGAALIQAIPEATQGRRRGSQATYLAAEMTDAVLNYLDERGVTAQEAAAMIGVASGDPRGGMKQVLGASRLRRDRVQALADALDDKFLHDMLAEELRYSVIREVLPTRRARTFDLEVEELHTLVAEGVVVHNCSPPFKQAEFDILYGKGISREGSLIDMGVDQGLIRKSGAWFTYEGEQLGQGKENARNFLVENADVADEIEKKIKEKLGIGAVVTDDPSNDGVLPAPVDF
Arbovirus inh – antivirals against arbovirus infection, primary screen, cell-based, full library, 10K replicate subset; inhibition, % at 10 µM; actives 0.37% (n = 200,000); arbovirus infection cell-based antiviral screen;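 active means inhibition from about 30%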;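 further: bluetongue infection of BSR cells; cell survival read as ATP light after 72 h; 0% = infected wells without compound and 100% = uninfected wells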
Arbovirus inh repeat – also measured in Arbovirus inh; calls as there; inhibition, %; measured here: 10K subset replicate screen; many hits read low in the repeat;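 first of two repeat runs on a subset; 0% = infected and 100% = uninfected wells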
Active calls of the source: *; ? = inconclusive; / = not tested or not shown.

SMILES	Mtb H37Rv	YopH PTP inh	Mtb bLac sens	RecA intein inh	Arbovirus inh	others
COc1c2ccoc2nc2c(OC)c(O)ccc12	7%	/	3	-5.7	6	Arbovirus inh repeat=5
CCN1CCN(c2ccc(S(=O)(=O)N3CCCCC3)cc2NC(=O)c2sccc2C)CC1	/	/	-11	4.3	/
CN(C(=O)c1ccccc1-c1ccccc1C(=O)O)c1ccccc1	/	/	-1	-1.6	/
CCCCn1c(=N)n(CC(O)COc2ccccc2)c2ccccc21 (stereo not drawn)	12%	-33	-16	16	-18
O=C(O)COc1ccccc1/C=N/NC(=O)CSc1nc2ccccc2n1Cc1ccc(Cl)cc1	3%	/	-2	5.9	/
Cc1ccccc1C(=O)NNC(=O)CSc1nc2ccccc2c(=O)[nH]1	-2%	/	-1	-4.4	/
CCN(CC)CCN(C(=O)c1ccc2c(c1)OCCO2)c1nc2cc(C)cc(C)c2s1	/	/	100	8.5	/
CC(Oc1ccc(Br)cc1)C(=O)N(C)CC(=O)Nc1ccc(N2CCOCC2)cc1 (stereo not drawn)	/	/	1	-2.5	/
COc1cccc(-c2nnc3n2N=C(C(C)(C)C)CS3)c1	9%	-49	7	1.6	13	Arbovirus inh repeat=-5
COC(=O)c1c(C)n(-c2ccc(C)cc2)c2ccc(O)cc12	4%	-3	81	-0.2	3
COc1ccc(/C=N/Nc2ccccc2)cc1Cn1nc(C)c([N+](=O)[O-])c1C	?	9	45	-0.2	-36
O=C(Nc1ccc2ccccc2c1)C(=O)C1C(=O)Nc2ccccc21 (stereo not drawn)	-17%	/	23	7.3	/
O=C(NCc1ccccn1)C(=O)NCC1OCCN1C(=O)c1ccc(Cl)cc1 (stereo not drawn)	/	/	-2	8.0	/
COc1ccc(CN(C(=O)c2cc(=O)c3ccccc3o2)C2CCS(=O)(=O)C2)cc1 (stereo not drawn)	/	/	3	1.1	/
CCC1CCCCN1CCCNC(=O)c1c(O)nc2cc(C)ccn2c1=O (stereo not drawn)	/	/	7	-0.7	/
O=C(Nn1cnnc1)C1Cc2ccccc2CN1S(=O)(=O)c1ccc(F)cc1 (stereo not drawn)	-5%	0	-20	/	-1	Arbovirus inh repeat=5
CN(CC(=O)NCc1ccc(Cl)cc1)S(=O)(=O)c1cccc2nsnc12	-3%	-58	-14	0.5	5
COc1ccc(C(=O)Nc2ccnn2C2CCN(Cc3ccncc3)CC2)cc1	/	/	?	1.8	/
COc1ccccc1-c1ccc(SCC(=O)NC2CCCCC2)nn1	/	/	0	-1.4	/
CCCCn1c(=O)n(CC(=O)Nc2c(CC)cccc2CC)c(=O)c2c1nc(CO)n2CCC	2%	-27	-10	2.6	10
COc1ccc(NC(=S)N/N=C2\CC(C)(C)Oc3ccc(O)cc32)cc1	5%	-26	3	-15	10
CC1(C)CC(=O)c2c(O)cc(OCC(=O)NCCc3ccc(S(N)(=O)=O)cc3)cc2O1	/	/	-10	4.3	/
Cc1ccc(NC(=O)C2=C(O)c3ccccc3N(C)S2(=O)=O)cc1	-15%	-17	?	3.0	12
Cc1cc(C)n(-c2nnc3c4ccccc4n(C)c3n2)n1	-7%	/	-1	0.8	/
Cn1c(=O)c2c(ncn2CC(=O)N/N=C/c2ccco2)n(C)c1=O	1%	-28	-5	0.0	-9
S=C(NCc1ccccn1)Nc1ccc(Cl)c(Cl)c1	/	-20	-3	1.9	-19
CNc1ccc(Br)cc(C(=O)/C=C/c2ccc(OC)cc2OC)c1=O	2%	-16	5	11	8
Cc1ccc(-n2c(O)c(/C=C3/C(c4ccccc4)=Nc4ccccc43)c(=O)[nH]c2=O)cc1	13%	-16	3	1.7	2
CC(=O)NCCC(=O)N1CCc2c([nH]c3ccccc23)C1c1cccc(C)c1 (stereo not drawn)	-10%	/	-6	1.5	-5
COC(=O)c1ccc(-c2ccc(F)cc2)nc1C	-2%	-25	-5	-3.9	0
COc1ccc(C(=O)C(c2ccccc2)N2CCOCC2)cc1 (stereo not drawn)	-7%	-42	-4	-2.2	-1
CCN(CC)C(=O)Nc1cnc2ccccc2c1	63%	-48	40	1.1	-3	Arbovirus inh repeat=-1
Nc1ccc(-c2nc3ccc(N)cc3s2)cc1	-4%	/	16	-42	/
CCCCCSc1cc(O)c(C(CNC)C(C)C)cc1OC (stereo not drawn)	-3%	-30	0	-1.2	-35
C[C@@H](C(=O)OCn1nnc2ccccc2c1=O)N1C(=O)C2CCCCC2C1=O (stereo partly drawn)	-6%	/	-5	-1.8	3
O=c1[nH][nH]c(C(F)(F)F)c1C=Nc1cccc(Cl)c1	-8%	-35	-1	-1.2	4
CN(CC(=O)Nc1ccc(S(N)(=O)=O)cc1)Cc1ccccc1F	-1%	/	4	5.3	0
CCCCOC(=O)C(C#N)c1nc2ccccc2nc1N1CCOCC1 (stereo not drawn)	3%	-33	-1	-11	-9
CN(C)c1ccc(/C=N/NC(=O)c2sccc2-n2cccc2)cc1	-12%	/	2	/	-3
COc1ccc(O)c(/C=N/NS(=O)(=O)c2ccc(C)cc2)c1	/	/	1	-6.1	/
Cc1cc(C)c(OCCN(C)Cc2ccccc2)c(Br)c1	7%	/	12	-1.3	10
COc1ccc(S(=O)(=O)c2nnn(-c3ccccc3Cl)c2N)cc1	-2%	/	-2	1.8	1
O=C(Nc1ccccc1)NC1CCCCCCC1	/	/	100	1.4	/
O=C(N/N=C(\c1ccccc1)c1cccnc1)C(O)(c1ccccc1)c1ccccc1	-5%	-1	-9	6.4	-15
CC(=O)ON1C(C)(C)CC(OC(=O)c2ccccc2)CC1(C)C	-2%	-18	4	0.0	0
CN(NS(=O)(=O)c1ccc(F)cc1)c1ncc(C(F)(F)F)cc1Cl	-3%	/	3	-2.6	12
CC(=O)Nc1ccc(C(O)(C(F)(F)F)C(F)(F)F)cc1	-6%	/	-5	-2.9	8
COC(=O)CSC1=C(C#N)C(c2ccc(F)cc2)CC(=O)N1 (stereo not drawn)	3%	-18	-7	-1.4	9	Arbovirus inh repeat=4
Cc1nnc(N2C(=O)C(O)=C(C(=O)c3ccco3)C2c2cccc3ccccc23)s1 (stereo not drawn)	-7%	/	-2	-1.3	/
COc1ccc2[nH]cc(CCNS(=O)(=O)c3ccc(C)cc3)c2c1	0%	/	2	1.4	/
CCOC(=O)CC(NS(=O)(=O)c1ccc2[nH]c(=O)sc2c1)c1ccc(C)cc1 (stereo not drawn)	/	/	-5	6.6	/
O=C1[C@@H]2CSCN2C(=O)CN1Cc1c(F)cccc1Cl	/	/	-6	-0.5	/
CCOC(=O)CSc1nc2ccccc2c(=O)n1C1CCCC1	-5%	-17	0	5.9	3
Cc1cccc(NC(=O)c2ccc(S(=O)(=O)C(F)F)cc2)c1C	9%	-3	-6	-0.6	4
CC1(C)NC(=O)N(CCCCOc2ccc3ccccc3c2Cl)C1=O	-1%	-18	8	1.9	5
COC(=O)[C@H](C)NC(=O)Nc1ccc(OC(F)(F)F)cc1	-11%	6	-10	-1.6	6
COc1cccc(NC(=O)CSc2ccc(-c3ccco3)nn2)c1	/	/	-19	4.4	/
CCOc1ccc(S(=O)(=O)N(C)CCO)cc1-c1nc2c(C(C)(C)C)nn(C)c2c(=O)[nH]1	/	-52	4	/	-21
Nc1cc(=O)nc(SCC(=O)N(C2CCCCC2)C2CCCCC2)n1-c1ccccc1	1%	-28	4	11	15
OC(Cn1cncn1)c1ccc(Cl)cc1 (stereo not drawn)	-2%	-49	-13	-0.5	-2
(continued)
SMILES	Mtb H37Rv	YopH PTP inh	Mtb bLac sens	RecA intein inh	Arbovirus inh	others
Cc1ccc(NC(=O)c2ccc(S(=O)(=O)NCc3cccnc3)cc2)c(C)c1	/	/	3	-1.2	/
CCCCN(C)C1CCN(C(=S)Nc2ccc(OC)cc2)CC1	4%	/	-7	-5.6	-2
CCN(CC(=O)Nc1c(F)cccc1F)C(=O)C1CC1C (stereo not drawn)	/	/	-12	-0.5	/
CCc1ccccc1NC(=S)N(CCN1CCCCC1)Cc1ccco1	0%	/	1	-0.8	5
Cc1nc2c3cc(F)ccc3n(Cc3ccccc3)c2s1	13%	0	21	1.4	-11
COc1cc(/C=N/NC(=O)CC23CC4CC(CC(C4)C2)C3)cc(Br)c1OCC(=O)N(C)C	8%	-31	6	0.4	-32
CC(C)[C@H](NC(=O)c1ccc(C(C)(C)C)cc1)C(=O)Nc1nnc(C2CC2)s1	10%	-10	81	-0.5	10
O=C(Nc1ncc(Cc2cccc(Cl)c2)s1)C1CCCO1 (stereo not drawn)	58%	8	7	5.5	-15
O=C(Cn1ncc2c([nH]c3ccccc32)c1=O)N1CCN(c2ccccn2)CC1	/	/	1	-0.6	/
CCN(CC)S(=O)(=O)c1ccc(Cl)c(C(=O)Nc2nncs2)c1	-2%	4	-10	-0.4	20
Cc1ccc(C(=O)NCC(=O)N2CCN(S(=O)(=O)c3cccs3)CC2)s1	-10%	/	1	2.0	0
Cc1ccc2oc(-c3ccc(NC(=O)c4cccnc4)cc3)nc2c1	21%	-11	60	-1.4	11
CC(C)c1ccc(NC(=S)N2CCN(C)CC2)cc1	/	/	3	-1.8	/
O=C(O)C1CCCCC1C(=O)Nc1cccc2ccccc12 (stereo not drawn)	-6%	2	-1	0.6	-1
O=[N+]([O-])c1ccc(S(=O)(=O)N2CCSC2c2ccco2)cc1 (stereo not drawn)	-6%	/	-4	-1.5	/

Seven entries already listed, ordered by molecular weight, highest first.
SMILES	Mtb H37Rv	YopH PTP inh	Mtb bLac sens	RecA intein inh	Arbovirus inh	others
Nc1cc(=O)nc(SCC(=O)N(C2CCCCC2)C2CCCCC2)n1-c1ccccc1	1%	-28	4	11	15
CN(CC(=O)NCc1ccc(Cl)cc1)S(=O)(=O)c1cccc2nsnc12	-3%	-58	-14	0.5	5
CCC1CCCCN1CCCNC(=O)c1c(O)nc2cc(C)ccn2c1=O (stereo not drawn)	/	/	7	-0.7	/
COc1ccc(O)c(/C=N/NS(=O)(=O)c2ccc(C)cc2)c1	/	/	1	-6.1	/
O=C1[C@@H]2CSCN2C(=O)CN1Cc1c(F)cccc1Cl	/	/	-6	-0.5	/
COC(=O)c1c(C)n(-c2ccc(C)cc2)c2ccc(O)cc12	4%	-3	81	-0.2	3
CCN(CC)C(=O)Nc1cnc2ccccc2c1	63%	-48	40	1.1	-3	Arbovirus inh repeat=-1

Going on with the list.
SMILES	Mtb H37Rv	YopH PTP inh	Mtb bLac sens	RecA intein inh	Arbovirus inh	others
CCN(Cc1cnn(C)c1)C(=O)C1CCC(=O)N(CCc2ccc(OC)cc2)C1 (stereo not drawn)	/	/	-5	-0.3	/
C#CCO[C@@H]1C[C@H](n2cnc3c(=O)[nH]c(NC(=O)C(C)C)nc32)O[C@@H]1CO	5%	/	-18	-2.0	/
CCN(CC)CCCNC(=O)c1ccc(OCC(=O)Nc2ccccc2C(F)(F)F)c(OC)c1	0%	/	-7	12	-21
Nc1c(C(=O)OCc2ccccc2)c2nc3ccccc3nc2n1Cc1cccs1	3%	-22	-4	-0.5	2
CCOc1ccc(C(=O)NCC(=O)N2CCCC2)cc1	/	/	5	-3.6	/
O=C(NC(NC(=S)Nc1ccc(Cl)cc1Cl)C(Cl)(Cl)Cl)c1cccc([N+](=O)[O-])c1 (stereo not drawn)	8%	-30	74	37*	-34
COc1ccc(C(=O)NC2CCN(CC(=O)NCc3cccc(OC)c3)CC2)cc1	/	/	-3	-0.9	/
O=S(=O)(c1ccc(Cl)cc1)N1CCCC1c1nc2ccccc2s1 (stereo not drawn)	-8%	-26	6	-5.3	12
Cc1ccc(NC2CCCN(C(=O)c3ccc(F)cc3)C2)cc1C (stereo not drawn)	/	/	11	-1.4	/
C=CCNC(=O)c1ccc(N(Cc2ccccc2)S(C)(=O)=O)cc1	/	/	-18	3.3	/
CCOc1ccccc1NC(=O)C1=C(C)NC(=O)NC1c1cccs1 (stereo not drawn)	3%	/	-7	1.7	-2
O=C(COc1ccc(Cl)cc1)NC1CN2CCC1CC2 (stereo not drawn)	-14%	-6	-17	0.3	0
O=C(O)CSc1nnc(Cn2cnc3ccccc32)n1CCc1ccccc1	-8%	-65	-6	0.6	0
CCS(=O)(=O)N1CCN(Cc2c[nH]c3ccccc23)CC1	-5%	/	3	0.1	5
COc1ccccc1-c1nnc(SCC(=O)c2ccc(C3CCCCC3)cc2)n1Cc1ccco1	3%	25	1	9.8	-25
COc1ccc(N(C)C(=O)c2cnc(N3CCN(c4ncccn4)CC3)c3ccccc23)cc1	/	-8	-8	4.8	5
CC(=O)c1ccc(N2CCN(C(=O)C3CCCN3S(=O)(=O)c3cccc4nsnc34)CC2)cc1 (stereo not drawn)	/	/	-5	0.5	/
Cc1cc(C)cc(OCCCCCNCCO)c1	-4%	-8	-3	-4.8	-13	Arbovirus inh repeat=-8

A portion of the library; count on the stated rates, not on these rows.
